AID504770: growth inhibition of E. coli YBA685, primary screen, V. cholerae RctB inhibitors. z-score (concentration not given with the values). AID 504770, 2011. actives 0.27% (n = 130,000). E. coli YBA685 rctB-dependent plasmid, OD600 growth, 3 h; active compounds read low;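 active = z-score under -2 on both plates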;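 note: wells of about 30 µL received 100 nL stock; score is relative to mean and SD of the test wells; the first replicate is given; strong numbers were not always called active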
Ba CapD inh: Bacillus anthracis CapD inhibitors, primary screen, biochemical, fluorescence intensity. CapD gamma-glutamyltranspeptidase (Bacillus anthracis Ames Ancestor). purified CapD enzyme, fluorescence intensity read-out; active compounds read low; some hits fall short of the stated cut. z-score (concentration not given with the values). actives 0.23% (n = 140,000). AID 492967, 2010;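 active = z-score under -4 in either of two replicates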;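 note: stock transfer was 100 nL into about 40 µL; score is relative to mean and spread of the plate; one replicate is shown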
* marks the source's active call; other numbers are inactive results; i = inactive; nt = no result given; & = joins results of further samples. Only part of the results is shown. The share of hits here may be higher or lower than overall.

Values run as follows: Ba CapD inh	AID504770
1. O=C(Nc1ccccc1Sc1ncnc2sc3c(c12)CCCC3)c1cccs1
  1.4	1.1
2. O=C(CSc1ncnc2nc[nH]c12)N1CCN(c2ccccc2)CC1
  -0.34	-0.15
3. CCOC(=O)c1c(SC)nc2c(Cl)cccc2c1N(C)CCOC(=O)NC1CCN(Cc2ccc3c(c2)c2ccccc2n3CC)C1 (centres undefined)
  0.19	nt
4. O=C(Cn1c(SCc2ccccc2)nc2ccccc21)N1CCCCC1
  0.22	nt
5. N#CC1=C(N)N(N2CCOCC2)C2=C(C(=O)CC(c3ccccc3)C2)C1c1ccccc1Cl (centres undefined)
  -0.43	-0.2
6. O=C(O)C1CC1c1ccccc1 (centres undefined)
  0.17	-0.35
7. Cc1c(-c2ccccc2)nc(N)c(C#N)c1-c1ccco1
  1.4	0.35
8. COc1cc(/C=C2\SC(=O)N(C)C2=O)ccc1Oc1ccc([N+](=O)[O-])cc1[N+](=O)[O-]
  0.91	nt
9. FC(F)(F)c1ccc(/C=N/Nc2nc3ccccc3nc2C(F)(F)F)cc1
  -1.1	nt
10. O=C1NC(=O)C2(CCOCC2)C(=O)N1
  nt	-0.45
11. CC(C)C1Nc2ccc(C(F)(F)F)cc2NC1=O (centres undefined)
  0.33	1.1
12. Cc1cc(=O)n2[nH]c([N+](=O)[O-])nc2n1
  -0.74	nt
13. CCOc1ccc(NC(=O)C/C(N)=N/O)cc1
  -0.12	-1.2
14. Cc1ccc(S(=O)(=O)N2CCN(C(=O)Cc3ccc(F)c(F)c3)CC2)cc1Cl
  -0.3	nt
15. O=C(Nc1ccc(Oc2ccccc2)cc1)C1CCN(c2nc3ccccc3o2)CC1
  nt	0
16. CC(OC(=O)c1cccc(NS(C)(=O)=O)c1)C(=O)Nc1ccc(N2CCOCC2)cc1 (centres undefined)
  nt	-1.1
17. Cc1nc(N)nc2[nH]c(=O)n(-c3ccccc3)c(=O)c12
  0.82	-0.05
18. CC(=O)Nc1sc(Cc2ccccc2)c(C)c1C(N)=O
  1.3	-0.1
19. CC1CN(S(=O)(=O)c2ccc(NC(=O)CCS(=O)(=O)c3ccccc3)cc2)CC(C)O1 (centres undefined)
  nt	0.3
20. CCC(C)NC(=O)CCn1c(=O)c2cccn2c2ccc(F)cc21 (centres undefined)
  5	0.7
21. NCC(c1ccccc1)c1c[nH]c2ccccc12 (centres undefined)
  -0.23	-0.4
22. CN(C)Cc1c(C(=O)N/N=C/CCc2ccccc2)nnn1-c1nonc1N
  0.53	0.9
23. Cc1cccc(-c2nnc(NC(=O)c3c(F)cccc3F)s2)c1
  i	0.25
24. O=C(COC(=O)Cc1ccccc1)Nc1cccnc1Cl
  nt	-1.1
25. CC(=O)NC12CC3CC(C1)CC(C(=O)OCC(=O)Nc1cc(C)nn1-c1ccccc1)(C3)C2
  nt	-0.35
26. Cc1cc2c(ncn2C(C)C)c(NS(=O)(=O)c2ccc(F)cc2)c1C
  0.06	nt
27. CC(=O)N1CCc2[nH]c3ccccc3c2C1
  nt	-0.65
28. CSc1sc(C(=O)O)c(C)c1C(C)O (centres undefined)
  -0.65	-0.7
29. Cc1ccc2oc(-c3cccc(Cl)c3)nc2c1
  2.3	1.4
30. Brc1ccc(-c2nnc3sc(-c4cccs4)nn23)cc1
  -0.17	-0.1
31. COc1ccc(CN2CCCC(COC(=O)NNC(=O)c3ccc(C)s3)C2)cc1OCc1ccccc1 (centres undefined)
  -0.025	nt
32. CC(C)Cc1ccc(C(C)c2nc3ccccc3[nH]2)cc1 (centres undefined)
  0.55	0.3
33. Nc1cccnc1-n1nc(C(F)(F)F)cc1C(F)(F)F
  0.31	-0.6
34. CCN1CCN(C(=O)c2cccc(Nc3nc4ccccc4n4cnnc34)c2)CC1
  -0.42	-0.35
35. CCN(c1nc(C)cc(OC)n1)S(=O)(=O)c1ccc(C)cc1
  -0.57	-0.85
36. CCOC(=O)c1c(NC(=O)C(C)Sc2nnc(CNC(=O)Cc3ccc(OC)cc3)n2C)sc2c1CCCC2 (centres undefined)
  -0.53	nt
37. O=C(Nc1ccccc1)OC1CCCC1
  0.47	-0.6
38. CSC(=NCCSC(C)(C)C)NC#N
  -0.82	nt
39. Cc1cc(C)cc(NC(=O)c2sc3nc(SCc4cccc(Cl)c4)n(CCc4ccccc4)c(=O)c3c2C)c1
  -1.2	nt
40. CN(C)CCC(c1ccc(Cl)cc1)c1ccccn1 (centres undefined)
  64&0.24	nt
41. C(=Nc1ccc(N2CCOCC2)cc1)c1ccc2c(c1)OCO2
  -0.24	-1
42. c1ccc(-c2cnc(-c3ccncc3)nn2)cc1
  -0.31	nt
43. COc1ccc(NC(=O)CSc2ncccc2C(=O)N2CCC(Cc3ccccc3)CC2)cc1OC
  -0.37	nt
44. CC1C(O)C(N(C)C)CC2COCC21 (centres undefined)
  -0.12	-0.35
45. CN1CCN(S(=O)(=O)c2ccc3c(c2)Cc2cc(S(=O)(=O)N4CCN(C)CC4)ccc2-3)CC1
  1.1	nt
46. CCOc1ccc(N(C(=O)NC2CCCCC2)C2=NCCCCC2)cc1
  nt	-0.25
47. O=C(O)CCC(=O)Nc1nc(-c2ccc(Br)cc2)cs1
  0.23	-0.55
48. N#CC(C#N)=CNc1cccc(N)n1
  3.8	nt
49. Cc1c(C#N)c(NC(=O)Cc2c(Cl)cccc2Cl)n(C2CCCCC2)c1C
  nt	0.15
50. O=C1CSCC(=O)N1c1ccc(Cl)cn1
  0.32	-0.95

Other results
Values run as follows: Ba CapD inh	AID504770
51. Cc1c(C(=O)NCCN(C)c2ccccc2F)sc2ncn(CC(=O)N3CCN(c4ccccn4)CC3)c(=O)c12
  -0.2	nt
52. CC1=Nc2cc(C(=O)NCC3CCCO3)ccc2Sc2ccccc21 (centres undefined)
  0.52	0.9
53. CCOC(=O)c1[nH]cnc1C(=O)NC1CCCCC1
  nt	-0.15
54. COc1ccccc1Cn1c(SCC#N)nc2cc(C(=O)N3CCC4(CC3)OCCO4)ccc2c1=O
  -1	nt
55. O=C(Nc1ccccc1C(=O)OCc1csc(Nc2ccccc2)n1)c1ccco1
  nt	0.25
56. Cc1cn(S(=O)(=O)c2ccc(Br)c3ccccc23)cn1
  0.45	0.2
57. CCc1ccc(CNC(=O)C2CCCN2c2nnc(N3CCCC3=O)s2)cc1 (centres undefined)
  0.73	-0.25
58. CN(C(=O)CN(c1ccc(Cl)cc1Cl)S(C)(=O)=O)c1ccccc1
  0.025	nt
59. O=C(Cc1nc(=O)c2ccccc2s1)Nc1ccccc1
  0.19	-0.5
60. S=c1n(CN2CCOCC2)nc2n1CCCCC2
  -0.085	0.3
61. COc1cc(CN2CCN(CCOC(=O)NNC(=O)C(C)n3nnc(N4CCOCC4)n3)CC2)cc2c1OCO2 (centres undefined)
  0.45	nt
62. CCN(CC)c1ccc2cc(-c3nc(-c4ccc(Cl)cc4)cs3)c(=Nc3ccccc3)oc2c1
  -0.85	nt
63. COC(=O)c1cc2c(ccn2-c2ccc(F)cc2)n1CC(=O)Nc1ccc(C)cc1
  nt	-0.05
64. O=C(Cc1csc(NC(=O)Cc2ccccc2)n1)NO
  nt	-0.95
65. O=C(CCC(=O)N1CCSc2ccccc21)Nc1cccc(F)c1
  -0.32	-0.1
66. CC(=O)N1CCC(=NNc2ccnc3cc(Cl)ccc23)CC1
  nt	1.2
67. CCCc1cc(=O)[nH]c2nnc(SCC(=O)Nc3ccccc3C(F)(F)F)n12
  nt	-0.5
68. CC(C)(C)S(=O)(=O)/C(C#N)=C/Nc1ncccn1
  -0.5	0.2
69. c1cc(Oc2ncnc3sc4c(c23)CCCC4)cc(-n2cnnn2)c1
  nt	0.2
70. Cn1c(=O)c2c(nc(NNC(=O)C(F)(F)F)n2C)n(C)c1=O
  -0.08	-0.25
71. Cc1cccc2c1SC1CCCCC1OC(=O)N2 (centres undefined)
  -0.13	1.6
72. Fc1cc(F)cc(Cc2nc(-c3cccs3)no2)c1
  0.19	nt
73. CCCCn1c(CNC(=O)c2ccccc2F)nnc1SCC(=O)OC
  0.23	0.2
74. Cn1c(/C(C#N)=c2/s/c(=C\c3ccsc3)c(=O)n2-c2ccccc2)nc2ccccc21
  nt	1.7
75. O=S(=O)(Nc1ccc2c(c1)oc1ccccc12)N1CCCC1
  2.9	-0.1
76. COc1nccnc1NS(=O)(=O)c1ccc(NC(=O)c2cc3c(ccc4ccccc43)oc2=O)cc1
  0.23	nt
77. Cn1nc(C(F)(F)F)c(/C=C(\C#N)c2ccc(Cl)c(Cl)c2)c1Cl
  -0.015	nt
78. O=C1CCCC/C1=C\N1CCOCC1
  nt	-0.2
79. COc1ccc(OC2C(=O)N(Cc3ccc(F)cc3)C2c2ccc(OC)c(OC)c2)cc1 (centres undefined)
  -0.81	-0.5
80. O=C(OCCN1C(=O)c2ccccc2C1=O)c1cc(-c2ccco2)nc2ccccc12
  nt	1.9
81. CCOc1ccc(C2(O)CN(c3ccc(Cl)cc3)C3=[N+]2CCCS3)cc1 (centres undefined)
  0.2	nt
82. COc1cccc(OC)c1C(=O)Nc1c(C)c(N2CCCC2)cc2c1C(C)(C)CC2(C)C
  -0.81	-0.65
83. Cc1cc(C(=O)CCC(=O)O)cc(C)c1O
  nt	0.65
84. O=C(CCC(=O)c1ccc(Cl)cc1)Nc1c(F)cccc1F
  0.14	0.6
85. COc1cc(C(=O)N2CCC(n3nnc4cc(F)ccc43)CC2)cc(OC)c1OC
  nt	-0.5
86. COC(=O)Cn1ncn2cccc2c1=O
  0.77	0.35
87. N#Cc1c(SCC(=O)NC2CC2)nsc1SCC(=O)NC1CC1
  -1.1	-0.55
88. Clc1ccccc1Cn1cc(-c2ccc3ccccc3n2)cn1
  24	nt
89. CC(C)(CO)NC(=O)c1cccc(S(=O)(=O)N2CCOCC2)c1
  -0.36	-1
90. NC(=O)C1CCN(CN2C(=O)c3ccccc3C2=O)CC1
  -0.33	1.4
91. CCN(CC)CCNc1nc(C)cc(C)n1
  -0.01	0.55
92. CC1(C)CC(NCc2cccc(C(F)(F)F)c2)c2cccn21 (centres undefined)
  0.18	nt
93. Cc1ccc(NS(=O)(=O)c2c(C(C)C)cc(C(C)C)cc2C(C)C)cc1
  0.28	1
94. O=C1CCCC(=O)C1C(c1ccccc1)C1C(=O)CCCC1=O
  nt	-0.35
95. Nc1[nH]ncc1S(=O)(=O)c1ccccc1
  -0.075	0.65
96. COc1cc2c(cc1OC)C(C)N(C(=O)c1ccc(F)cc1)CC2 (centres undefined)
  0.55	-0.7
97. Cc1onc(-c2c(Cl)cccc2Cl)c1NC(=O)N1CCOCC1
  -0.48	1.1
98. O=C(Nc1nccs1)C1CC1
  nt	-0.95
99. NC(CSCc1cccc(Br)c1)C(=O)O (centres undefined)
  11	-0.75
100. O=C(Nc1cccc(F)c1)C1CCCN(c2cnccn2)C1 (centres undefined)
  32	-0.35

The listing continues:
Values run as follows: Ba CapD inh	AID504770
101. CSc1sc(-c2ccnc(=S)[nH]2)c2c1C(=O)CC(C)(C)C2
  -0.6	nt
102. COc1ccc(-c2csc(-n3nc(C)cc3C)n2)cc1
  -0.14	-0.45
103. N#Cc1nc(N2CCCC2)nc(N(c2ccccc2)c2ccccc2)n1
  1.9	0.35
104. N#Cc1c(NC(=O)c2cccnc2)sc2c1CCCC2
  6	0.45&-0.15
105. Cc1cc(OCC(=O)OCc2ccccc2)c2c3c(c(=O)oc2c1)CCCC3
  1.9	nt
106. Cc1cc(C(=O)O)on1
  nt	-0.1
107. COc1ccc(C2(O)N=C(C(F)(F)F)NC(SC)=C2C#N)cc1 (centres undefined)
  -1.2	1.1
108. CN1CCCC(OC(=O)c2ccco2)C1 (centres undefined)
  0.42	-0.5
109. O=C(O)CCCC(=O)N1CCN(c2ncccn2)CC1
  2	-0.05
110. CN(C(=O)Oc1ccc(C(C)(C)C)cc1)c1ccccc1
  -0.06	0

Compounds 105 through 110, quoted:
Values run as follows: Ba CapD inh	AID504770
105. Cc1cc(OCC(=O)OCc2ccccc2)c2c3c(c(=O)oc2c1)CCCC3
  1.9	nt
106. Cc1cc(C(=O)O)on1
  nt	-0.1
107. COc1ccc(C2(O)N=C(C(F)(F)F)NC(SC)=C2C#N)cc1 (centres undefined)
  -1.2	1.1
108. CN1CCCC(OC(=O)c2ccco2)C1 (centres undefined)
  0.42	-0.5
109. O=C(O)CCCC(=O)N1CCN(c2ncccn2)CC1
  2	-0.05
110. CN(C(=O)Oc1ccc(C(C)(C)C)cc1)c1ccccc1
  -0.06	0

(list continues)
Values run as follows: Ba CapD inh	AID504770
111. CN(C(=O)CSc1ccc(Cl)cc1)c1ccccc1C(=O)NC1CCCCC1
  -0.55	0.9
112. C/C(C/C(C)=C1/SC(=S)NC1=O)=C1\SC(=S)NC1=O
  -0.38	-0.35
113. C[C@@H](O)[C@H]1C(=O)N2C(C(=O)O)=C(S[C@@H]3CN[C@H](C(=O)N(C)C)C3)[C@H](C)[C@H]12
  -0.63	nt
114. FC(F)(F)c1cc(C(F)(F)F)c2ccc(Sc3ccccc3)nc2n1
  -0.65	nt
115. O=C1C2ON(c3ccccc3)C(c3ccco3)C2C(=O)N1c1ccccc1 (centres undefined)
  49	-1.4
116. O=C(NCC(=O)N1CCN(C2CCS(=O)(=O)C2)CC1)c1ccc2c(c1)OCO2 (centres undefined)
  nt	1.6
117. CCOc1ccc(OCCOc2ccc(CNCC(=O)N(C)C)cc2OCC)cc1
  nt	0.5
118. C=CCN(c1ccc(C(=O)N2CCC(C(=O)OCC)CC2)cc1)S(C)(=O)=O
  nt	-0.3
119. Cc1cc(C)c(S(=O)(=O)Nc2ccc3c(c2)c2c(n3S(=O)(=O)c3c(C)cc(C)cc3C)CC(C)(C)CC2=O)c(C)c1
  -0.46	nt
120. O=C(CN1CCN(C(=O)c2ccc(-c3ccccc3)cc2)CC1)N1CCCC1
  nt	1.6

Compound activity: PubChem BioAssay, ICCB-Longwood Screening Facility, Harvard Medical School
